PKD1 inh = inhibitors of human PKD1 kinase. PKD1 kinase fluorescence polarization assay. 200,000 tested, 0.056% active. inhibition, %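 (about 10 µM by stock and volumes)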;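 active = inhibition of 50% or more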;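 note: controls were vehicle for no effect and a reference inhibitor for full effect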
HSV augment = HSV replication enhancement; maximum fold increase; 220,000 tested, 0.005% active; AID 1956; HSV replication augmentation in cells, fold increase;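 active = peak rise of 1.5-fold or more in the series; tested in PC3 cells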;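 note: first round at 10 µM; read as green reporter fluorescence; hits show the peak of a series up to 25 µM; 1 = signal of infected wells without compound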
INS promoter inh = TRM-6 insulin promoter activity inhibition; 130,000 tested, 0.9% active; TRM-6 cells (human fetal islet line), insulin promoter-eGFP reporter, imaging; reporter expression induced with tamoxifen; inhibition, % at 2 µM; AID 1273;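 active = inhibition above the mean plus 3 SD, with well images judged a real hit on visual review, cut at about 60% in these data, passing the limit was not always enough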
GALR2 agonist = agonists of human galanin receptor 2 (GALR2). 140,000 tested, 0.48% active. activation, %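 (tested at 5 µM)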. GALR2-expressing cells, agonist activation read-out. O43603. AID 803;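 active = above mean plus 3 SD of all compounds, about 5% in these data, not always enough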;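 note: 0% = vehicle buffer wells and 100% = reference agonist at full effect; tested in CHO reporter cells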
Target sequence (O43603 whole entry, looked up): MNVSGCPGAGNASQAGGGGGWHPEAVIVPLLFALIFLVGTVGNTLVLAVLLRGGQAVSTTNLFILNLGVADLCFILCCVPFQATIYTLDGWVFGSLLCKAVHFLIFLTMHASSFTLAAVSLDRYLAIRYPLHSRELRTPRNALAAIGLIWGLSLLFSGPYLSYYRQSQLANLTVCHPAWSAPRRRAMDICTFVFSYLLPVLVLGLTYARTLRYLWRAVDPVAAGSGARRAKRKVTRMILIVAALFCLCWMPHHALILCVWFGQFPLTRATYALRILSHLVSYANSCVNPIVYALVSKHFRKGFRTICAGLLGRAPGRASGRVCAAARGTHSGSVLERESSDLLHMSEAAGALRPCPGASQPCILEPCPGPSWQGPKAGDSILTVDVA
RGS16-Gao HTS = regulators of human RGS16-Galphao interaction; binding response (% of control), % at 10 µM; 220,000 tested, 0.38% active; O15492+P09471; bead-based flow cytometry RGS16-Galphao binding, fluorescence; actives lie on both sides;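 active = below 25% or above 175%, edge rows of some plates excepted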;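 note: Galphao activated by GDP with aluminum fluoride before binding; 100% = wells without compound and 0% = beads without RGS; some results beyond the cut were filed as inactive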
Target sequence (O15492 whole entry, looked up): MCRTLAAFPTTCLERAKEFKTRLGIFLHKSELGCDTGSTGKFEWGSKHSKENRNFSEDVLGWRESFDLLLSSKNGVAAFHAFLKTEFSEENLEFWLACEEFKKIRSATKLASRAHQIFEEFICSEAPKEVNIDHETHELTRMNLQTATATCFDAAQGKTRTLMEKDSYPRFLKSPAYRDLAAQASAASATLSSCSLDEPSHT
Target sequence (P09471 whole entry, looked up): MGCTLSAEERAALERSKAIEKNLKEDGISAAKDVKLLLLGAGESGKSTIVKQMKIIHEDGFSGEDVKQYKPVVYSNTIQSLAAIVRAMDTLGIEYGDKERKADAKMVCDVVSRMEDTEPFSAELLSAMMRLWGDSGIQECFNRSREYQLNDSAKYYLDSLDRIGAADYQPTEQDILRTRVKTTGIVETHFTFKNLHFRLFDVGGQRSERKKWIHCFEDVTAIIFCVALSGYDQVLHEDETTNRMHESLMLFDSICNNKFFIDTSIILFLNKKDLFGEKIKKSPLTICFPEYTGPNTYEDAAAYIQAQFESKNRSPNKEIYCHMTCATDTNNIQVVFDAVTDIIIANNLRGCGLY
INS promoter inh cell count = second read-out of INS promoter inh, no call of its own (marks repeat the call); normalized cell count, %; measured here: cell count, toxicity; reference of the scale not given here;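 cells exposed to compound for 48 h; stained nuclei by imaging scaled within each plate; lower means fewer cells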
HSV augment primary fold = recorded beside HSV augment, whose call it bears; fold increase; compound at 10 µM; measured here: primary screen fold increase 10 uM; tested in PC3 cells;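 GFP signal in the first replicate; 1 = infected wells without compound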
* hit, by the source's call; i = inactive; . = not tested or not shown. Hits appear at their usual frequency (roughly 1.2% active in at least one column).

structure,PKD1 inh,HSV augment,HSV augment primary fold,INS promoter inh,INS promoter inh cell count,GALR2 agonist,RGS16-Gao HTS
O=C(CCn1c2c(c3ccccc31)CCCC2)NNC(=O)c1ccccc1C(=O)O,.,i,0.85,.,.,.,104.4
Fc1cccc(Cc2noc(CN3CCN(C4CCc5ccccc5C4)CC3)n2)c1 (stereo not drawn),-3.6,i,0.99,10.0,81.6,.,163.7
O=S(=O)(NCC1CCCO1)c1cc(Br)c(Br)s1 (stereo not drawn),-0.8,i,0.86,-12.5,104.3,-1.9,96.2
Cc1nc(Nc2ccc(F)cc2)[nH]c(=O)c1CCC(C)C,-6.0,i,1,31.2,141.5,-0.4,100.1
CCCCN(Cc1ccccc1)C(=O)C1CCCN(S(=O)(=O)c2cnc[nH]2)C1 (stereo not drawn),-9.4,i,0.87,.,.,-1.2,98.5
COCCCNc1oc(COc2ccc(Cl)cc2Cl)nc1C#N,-12.3,i,0.94,-91.7,103.2,0.1,99.2
CCOc1ccc(N2C(=O)CN=C2Nc2ccccc2Cl)cc1,6.8,i,1.13,-54.3,97.0,-1.0,107.7
CCOc1c(O)ccc(/C=C2\SC(=S)NC2=O)c1[N+](=O)[O-],6.0,i,1.04,5.0,98.2,.,88.9
COc1ccc(CCNC2=C(Cl)C(=O)N(Cc3ccccc3)C2=O)cc1OC,7.9,i,1,-16.7,123.5,.,102.8
O=C(N/N=C/c1cccs1)c1ccc2c(c1)OCO2,7.9,.,.,.,.,1.9,101.2

The list continues.
structure,PKD1 inh,HSV augment,HSV augment primary fold,INS promoter inh,INS promoter inh cell count,GALR2 agonist,RGS16-Gao HTS
CN(C)/C=C1\C(=O)N(c2ccc(Oc3ccccc3)cc2)CS1=O (stereo not drawn),1.4,i,0.79,.,.,0.1,105.3
Nc1nonc1C(=O)N1CCCC1,-6.8,i,1.09,.,.,.,100.0
COc1ccccc1CCNC(=O)NC1CCCCC1,3.5,i,1.2,.,.,.,98.3
Cc1ccc(OCC(O)CN2CCN(CC(O)COc3ccc(C)cc3Cl)CC2)c(Cl)c1 (stereo not drawn),3.1,i,0.71,-22.9,116.7,-2.0,366.9
Cc1nn(-c2ccccc2)c(N2CCCC2)c1/C=N/NC(=O)c1cc(-c2ccccn2)nc2ccccc12,-1.4,i,1.05,.,.,0.3,100.7
CCOC(=O)Nc1ccc2nc3n(c(=O)c2c1)CCCCC3,-3.6,i,0.85,.,.,.,63.9
C=CCN1C(=O)CS/C1=N\N=C\c1cccc([N+](=O)[O-])c1,-2.1,i,0.95,14.3,161.4,.,98.9
Cc1ccccc1-n1nc(C)c2cc(C(=O)NC3CC3)sc21,-7.9,i,0.86,46.9,157.3,0.2,101.3
COc1ccc(CN2C(=O)CN(C3CCCCCC3)C(=O)C2c2ccc(OC)c(OC)c2)cc1 (stereo not drawn),-3.5,i,0.82,-3.0,119.0,-1.0,97.8
Cc1csc(NC(=O)CSc2nnc(-c3cccs3)n2C)n1,-5.6,i,1.27,.,.,-1.8,95.3

Following part
structure,PKD1 inh,HSV augment,HSV augment primary fold,INS promoter inh,INS promoter inh cell count,GALR2 agonist,RGS16-Gao HTS
CN(C(=O)COC(=O)c1ccc(NS(=O)(=O)c2cccs2)cc1)C1CCCCC1,16.4,i,0.97,-14.3,72.8,-0.8,133.9
Cc1ccccc1N=Nc1ccc(O)c2ncccc12,4.8,i,0.52,-58.3,42.9,0.6,82.3
CC(C)(C)N1CCC1C(N)=O (stereo not drawn),.,i,0.96,.,.,.,100.0
COC(=O)c1c(C)[nH]c(C(=O)CSc2ccc(Cl)cc2)c1C,3.5,i,0.87,0.0,40.5,-2.8,100.3
COc1ccc(N2CCc3c(C)nc4c(OC)cc(OC)cc4c32)c(OC)c1,-17.8,.,.,0.0,121.5,-2.2,95.7
CCOC(=O)C1CCCCN1Cc1cccc(C(F)(F)F)c1 (stereo not drawn),5.1,i,1.32,9.4,90.4,-2.9,100.3
Cc1ccccc1-n1nc2c(c1NC(=O)c1cc3ccccc3oc1=O)CS(=O)C2 (stereo not drawn),-4.0,i,1.02,.,.,-2.0,102.0
O=C(/C=C/c1cccs1)c1cc(F)ccc1OC(=O)N1CCOCC1,-6.6,i,0.887,-13.6,61.4,-0.6,.
O=C(CCCN1C(=O)c2ccccc2C1=O)NCc1ccco1,5.2,i,1.11,-238.9,78.0,-2.1,113.8
C/C(=N\NC(=O)c1ccc(O)cc1)c1ccc2c(c1)Nc1ccccc1S2,18.0,i,0.92,.,.,-0.9,99.6

Remaining list, next part
structure,PKD1 inh,HSV augment,HSV augment primary fold,INS promoter inh,INS promoter inh cell count,GALR2 agonist,RGS16-Gao HTS
Cc1cccc(-c2csc(N)c2C(=O)OC(C)C)c1,3.7,i,0.99,-6.5,100.8,-1.8,100.2
Cc1ccc(-c2cc(Cc3ccncc3)c(=O)[nH]n2)cc1,.,i,1.02,.,.,.,101.5
Cc1csc(NC(=O)c2c(O)c3c(n(CC(C)C)c2=O)CCCC3)n1,-6.4,i,0.9,18.9,103.2,-3.0,96.5
CCO[C@H]1OC(C(=O)N2CCN(C)CC2)=C[C@@H](c2coc3ccccc3c2=O)[C@@H]1CCCO,10.1,i,0.8,.,.,.,99.3
CC(=O)NC(C)C(=O)OCC(=O)c1ccc(-c2ccccc2)cc1 (stereo not drawn),-0.3,i,0.96,0.0,68.0,.,135.4
COc1ccc(CNC(=O)C(OC(=O)c2nsc(Cl)c2Cl)C(C)C)cc1 (stereo not drawn),6.4,i,0.94,.,.,.,102.8
COc1ccc(C2C(=O)c3ccccc3C2=O)c(OC)c1,-9.0,i,1.05,-42.9,121.0,-1.1,100.7
O=C(CSc1nnc2ccccn12)Nc1nsc(-c2ccccc2)n1,-0.5,i,0.93,36.0,140.2,-2.0,94.3
CC(C)C(NC(=O)c1cccs1)C(=O)NC1=NCCS1 (stereo not drawn),-9.9,i,1.01,.,.,-0.9,102.9
O=C(Nc1nc2ccccc2s1)C1CCCO1 (stereo not drawn),-6.1,i,0.86,.,.,-0.3,88.1

Continued.
structure,PKD1 inh,HSV augment,HSV augment primary fold,INS promoter inh,INS promoter inh cell count,GALR2 agonist,RGS16-Gao HTS
Cc1ccc(S(=O)(=O)Nc2nc3c(s2)C(=O)CC(C)(C)C3)cc1,-6.1,i,0.99,.,.,.,112.9
CSCc1ccc(C(=O)NCc2ccc(F)cc2)cc1,4.5,i,1.01,55.6,61.7,-1.0,110.0
CCOc1ccc(N(CC(=O)Nc2nccs2)S(=O)(=O)c2c(C)[nH]c(=O)[nH]c2=O)cc1,-2.4,i,0.88,.,.,.,94.8
COc1ccc(N2CCN(CCCNC(=O)C3CCCN(S(=O)(=O)c4c(C)n[nH]c4C)C3)CC2)cc1 (stereo not drawn),-2.1,i,1,.,.,.,98.1
NC(N)=NS(=O)(=O)c1ccc(NC(=S)NC(=O)c2sc3ccccc3c2Cl)cc1,-10.1,i,0.93,.,.,-0.5,98.9
Cc1nn(-c2ccccc2)c(Cl)c1/C=C(\CC(=O)O)c1nc2ccccc2s1,-5.3,i,0.93,0.0,80.3,-0.9,98.7
CCCCc1cc(=O)oc2cc(C)cc(OCC(=O)O)c12,-5.3,i,0.85,22.2,98.1,-1.1,99.9
O=S(=O)(Cc1ccccc1)N=Nc1c(O)[nH]c2ccc(Br)cc12,.,i,0.96,.,.,.,100.7
O=C(NCc1ccccn1)c1ccc(N2CCCC2)c([N+](=O)[O-])c1,-10.4,i,0.97,.,.,.,99.8
Cn1ccnc1C1CCCCN1Cc1nc(Cc2ccccc2F)no1 (stereo not drawn),-1.7,i,1.06,.,.,.,97.3

Part of the list above in order of heavy-atom count, highest first.
structure,PKD1 inh,HSV augment,HSV augment primary fold,INS promoter inh,INS promoter inh cell count,GALR2 agonist,RGS16-Gao HTS
CCOc1ccc(N(CC(=O)Nc2nccs2)S(=O)(=O)c2c(C)[nH]c(=O)[nH]c2=O)cc1,-2.4,i,0.88,.,.,.,94.8
NC(N)=NS(=O)(=O)c1ccc(NC(=S)NC(=O)c2sc3ccccc3c2Cl)cc1,-10.1,i,0.93,.,.,-0.5,98.9
Cn1ccnc1C1CCCCN1Cc1nc(Cc2ccccc2F)no1 (stereo not drawn),-1.7,i,1.06,.,.,.,97.3
O=C(NCc1ccccn1)c1ccc(N2CCCC2)c([N+](=O)[O-])c1,-10.4,i,0.97,.,.,.,99.8
CCCCc1cc(=O)oc2cc(C)cc(OCC(=O)O)c12,-5.3,i,0.85,22.2,98.1,-1.1,99.9

(further entries)
structure,PKD1 inh,HSV augment,HSV augment primary fold,INS promoter inh,INS promoter inh cell count,GALR2 agonist,RGS16-Gao HTS
CC1(C)Cc2cccc(OCC(=O)NC3CC3)c2O1,7.6,i,0.9,25.4,55.2,0.1,105.1
CC1CCCC(NC(=S)Nc2cccc(S(=O)(=O)N(C)C)c2)C1C (stereo not drawn),-4.2,i,1.08,-27.3,78.3,.,109.6
Cc1nc2ccccc2c(=O)n1Cc1ccco1,.,i,0.86,.,.,.,104.2
O=C(OCC1CC(c2ccccc2)=NO1)c1ccco1 (stereo not drawn),.,i,0.73,.,.,.,105.4
COC(=O)C1=CN(Cc2ccc(OC)c(OC)c2)C=C(C(=O)OC)C1c1cccs1,-5.8,i,0.97,.,.,.,91.8
CCn1cc(C(=O)N2CCN(c3cccc(C)c3C)CC2)c(=O)c2ccc(C)nc21,.,i,1.22,.,.,.,108.1
Cc1ccc(-n2c(=O)cc(N3CCc4ccccc4C3)[nH]c2=O)cc1,-8.6,i,1.03,4.8,107.0,-0.5,98.0
COc1ccc(C(=O)Oc2cc(OC)cc(OC)c2C(C)=O)cc1,-0.8,i,0.61,0.0,87.2,-1.5,103.3
Cc1ccc(NC(=O)CS(=O)(=O)c2cn(CC(=O)N3CCOCC3)c3ccccc23)cc1,-3.7,i,0.91,-11.1,111.2,.,101.0
COc1ccc(OC)c(/C=C/C(=O)Nc2ccc(OC)nc2)c1,-8.1,i,0.92,.,.,.,99.3

Next compounds follow.
structure,PKD1 inh,HSV augment,HSV augment primary fold,INS promoter inh,INS promoter inh cell count,GALR2 agonist,RGS16-Gao HTS
O=C(/C=C/c1ccc([N+](=O)[O-])cc1)N1CCN(c2ccccc2F)CC1,-9.5,i,0.88,0.0,139.5,0.2,107.1
COc1ccc(N=C2SC(C(=O)N3CCN(c4ccc([N+](=O)[O-])cc4)CC3)CC(=O)N2C)cc1 (stereo not drawn),4.2,i,1.04,-5.3,107.0,.,102.7
COc1cc(C)c(NC(c2ccccc2)c2ccccc2)cc1OC,-8.9,i,1.01,11.1,102.1,.,98.2
O=C(Cn1c(=O)n(Cc2ccco2)c(=O)c2c3c(sc21)CCCC3)Nc1ccccc1,-6.7,i,0.89,-393.8,53.1,-0.3,115.4
CC(NC(=O)Cc1cccs1)c1ccncc1 (stereo not drawn),0.1,i,1.1,12.5,185.7,-1.0,77.7
CCn1cc(Br)c(C(=O)Nc2ccccc2C(=O)OC)n1,-2.9,i,0.75,.,.,.,102.0
COCCCNC(=S)NCCc1ccc(F)cc1,-4.8,i,1.11,44.4,56.4,.,99.1
COc1ccc(CN(C(C)=O)c2cccc(C)c2C)cc1,1.3,i,0.85,-184.6,88.9,-1.4,103.6
N#C/C(=C\c1ccc(N2CCOCC2)cc1)c1ccccc1,-13.2,i,0.92,7.7,147.4,-0.9,96.4
COC(=O)c1ccccc1NC(=O)C1CC(=O)N(c2ccc(C)cc2)C1 (stereo not drawn),-9.5,i,0.71,34.2,155.2,-3.5,101.3

The list continues:
structure,PKD1 inh,HSV augment,HSV augment primary fold,INS promoter inh,INS promoter inh cell count,GALR2 agonist,RGS16-Gao HTS
CC1CCCC(C)N1C(=O)c1ccccc1Nc1ccc(SC(F)F)cc1 (stereo not drawn),4.6,i,1.13,30.8,106.2,-2.1,98.2
COC(=O)CSc1nc(N2CCOCC2)c2c(c1C#N)CC(C)(C)N(C)C2,-1.3,i,1.02,38.9,109.2,-0.2,104.8
COc1cc(S(=O)(=O)N2CCN=C2c2ccccc2)ccc1F,4.9,i,0.7,40.9,77.0,-2.2,102.2
S=c1[nH]nc(-c2ccco2)n1/N=C/c1ccccn1,9.3,i,1.02,-52.9,135.3,.,100.4

Assay outcomes as filed in PubChem BioAssay.
